# Bioassay records deposited in PubChem BioAssay by Fisher Drug Discovery Resource Center.
# NPYLR7 ag: mosquito NPYLR7 agonism. HEK293T NPYLR7/Galpha15, GCaMP6s calcium fluorescence. AID 1259423. hit rate 0.15% among 270,000. activation, % at 10 µM; in the data active = activation above about 40%;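 note: 0% = vehicle and 100% = reference agonist at the receptor; some compounds past the cut are filed as inactive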
# NPYLR7 ag max-min: second read-out of NPYLR7 ag, no call of its own (marks repeat the call); activation, %; measured here: Max-Min RFU normalised activation; some inactives read as strong as hits;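 span of the calcium signal over five minutes; 0% = vehicle and 100% = native peptide agonist; compound fluorescence can raise it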
# * marks the source's active call; other numbers are inactive results.
SMILES,NPYLR7 ag,NPYLR7 ag max-min
Cc1cccc(NC(=O)NCc2ccc3[nH]c(C)cc3c2)c1,9,12
COc1ccc2[nH]cc(C3CCN(C(=O)CN4CCCCCC4=O)CC3)c2c1,5,4
CCOC(=O)Cc1c(C)nc2ncnn2c1N1CCN(C(=O)COC(C)=O)CC1,26,17
COCCN(Cc1cccs1)C(=O)c1nccnc1C(=O)N1CCCCC1,18,4
O=C(COc1ccccc1)NCc1cc(-c2ccc3c(c2)OCO3)on1,4,3
COc1cc(=O)n(-c2ccccc2C)nc1C(=O)N1CCOCC1,5,5
CCCNC(=O)Cn1nc2c(c1NC(=O)c1ccc(-c3ccccc3)cc1)CSC2,5,20
CC(Nc1ccc(Oc2cccc3cccnc23)cc1)C(=O)NC(N)=O (configuration not stated),0,21
CCOC(=O)c1cc2c(=O)n3cccc(C)c3nc2n(C(C)C)c1=N,4,4
O=C(c1c(F)c(F)c(F)c(F)c1F)N1CCc2ccccc2C1c1ccc(Cl)cc1 (configuration not stated),23,9
O=C([C@@H]1CCCN1C1=NS(=O)(=O)c2ccccc21)N1CCN(c2ncccn2)CC1,-1,2
COCCN(CC(=O)N(CCc1ccc(OC)c(OC)c1)Cc1cccs1)C(=O)Nc1ccc(C)c(Cl)c1,-4,1
C=CCSc1nnc2c3ccccc3n(CC=C)c2n1,3,-2
Cc1n[nH]c(C)c1CNC(=O)CC(c1cccc(Cl)c1)c1ccccc1O (configuration not stated),-1,-7
CC1=C[C@@H](CNC(=O)c2cncnc2)[C@H](C(C)C)C[C@H]1CC(=O)NC1CCCC1,-14,-18
CCOC(=O)C1=C(C)N=c2s/c(=C/c3ccc([N+](=O)[O-])cc3)c(=O)n2C1c1cccs1 (configuration not stated),-1,-6
CN(CC1COCCO1)c1nc(-c2csc3ccccc23)ccc1C(=O)N1CCC(N2CCc3ccccc3C2)CC1 (configuration not stated),10,3
COC(=O)CCCCC(=O)NCc1cccc(-c2ncc(-c3cc(OC)ccc3OC)[nH]2)c1,-7,-11
O=C(CNC(=O)c1cccc(Br)c1)N=Nc1c(O)n(Cc2ccc3c(c2)OCO3)c2ccccc12,-2,-3
CNC(=O)c1ccc(CN(C)c2nc3ccccc3nc2C)cc1,-6,-6
COc1cccc([C@@H](C)NC(=O)CCc2nnc(Cc3cc(OC)ccc3OC)o2)c1,4,0
COc1ccc(NC(=O)N2CCN(CC(OCc3c(F)cccc3F)c3ccc(Cl)cc3)CC2)c(OC)c1 (configuration not stated),-4,8
Fc1ccc(NC2CCCNC2)cc1 (configuration not stated),2,1
CCCc1cc(CN(C)C(=O)c2cccs2)[nH]n1,-2,-3
CCOC(=O)c1sc2ncnc(NCC(C)(C)N3CC(C)OC(C)C3)c2c1C (configuration not stated),5,-1
COc1ccccc1CN1CCC(CN(CC(C)C)C(=O)C2CCCO2)CC1 (configuration not stated),1,-4
Cc1nc2n(n1)CC(NCC(=O)N(CCC#N)Cc1ccco1)CC2 (configuration not stated),0,-4
CC(C)Oc1ccc(C(O)=C2C(=O)C(=O)N(CCCN(C)C)C2c2ccncc2)cc1 (configuration not stated),14,15
CCN(CCC(N)=O)Cc1ccc(OCc2cccs2)c(OC)c1,3,1
COc1cccc(C2C(C(N)=O)=C(C)Nc3ncnn32)c1 (configuration not stated),-13,-13
O=C1C2CCCCC2C(=O)N1c1cc(=O)[nH]c2nc(COc3ccccc3)nn12 (configuration not stated),2,47
Cc1ccc(CN(Cc2ccc3c(c2)OCO3)Cc2nc(C(=O)NC3CC3)co2)cc1,21,30
CC(=O)Cn1c(=O)c2c(nc3n(-c4ccc(C)c(Cl)c4)c(C)cn23)n(C)c1=O,-2,27
CCOc1ccc(NC(=O)N(CCOC)Cc2ccc(OS(=O)(=O)c3ccc(F)cc3)cc2)cc1,14,17
CC1CCN(/C=C(\C#N)C(=O)Nc2cccc(Cl)c2)CC1,3,2
CCC(C)NC(=O)C(C)n1nc(C)n2c(cc3occc32)c1=O (configuration not stated),5,2
COc1ccc(OC)c(C2C(=C(O)c3ccc(C)cc3)C(=O)C(=O)N2Cc2cccnc2)c1 (configuration not stated),1,3
O=C(Nc1n[nH]c(-c2c(F)cccc2F)n1)c1cscn1,5,-11
CCCC(O)CN(CCCOC)Cc1ccsc1 (configuration not stated),-6,4
Cc1cccc(COn2cccc(C(=O)Nc3ccc(Cl)cc3C(F)(F)F)c2=O)c1,14,11
CCc1n[nH]c2c1CN(C(=O)C1=C(C)NC(=O)NC1c1cccs1)CC2 (configuration not stated),9,10
O=C1CCC2(C(=O)OCc3ccccc3F)N1c1ccccc1C(=O)N2C1CC1 (configuration not stated),4,4
COc1ccc(OC)c(NC(=O)C2CC=CCC2C(=O)N2CCc3ccccc3C2)c1 (configuration not stated),-3,-5
CC1(O)N(CC(=O)O)C(=O)OC12CCCCC2 (configuration not stated),23,18
CNc1nc(SC)nc(N(C#N)CC(=O)OC)n1,4,2
COCCN(C)Cc1ccc(-c2nc(C)c(C)c(=O)[nH]2)cc1,3,14
Cc1ccc(-n2nc3c(c2NC(=O)CC2CCCCC2)CS(=O)(=O)C3)c(C)c1,-5,-5
Cc1ccc(N2C(=O)CC(NCCCN3CCOCC3)C2=O)cc1 (configuration not stated),-4,-11
CC(C)NC(=O)NCCc1ccc(NC(=S)Nc2cccc(C(F)(F)F)c2)cc1,5,6
Cc1cc(O)c(C(c2ccccc2)N2CCN(c3ccccn3)CC2)c(=O)n1Cc1ccco1 (configuration not stated),10,0
# Additional records follow:
SMILES,NPYLR7 ag,NPYLR7 ag max-min
CN(Cc1nccn1C(F)F)Cc1c(Cl)nc2sccn12,-2,-4
CCCN(CC1CC1)C(=O)COC(=O)c1ccc(C)cc1O,-2,-3
CCCCN(Cc1ccc(C)s1)C(=O)C(C)N1CCN(C)CC1 (configuration not stated),21,10
NC(=O)C1CCCN1S(=O)(=O)c1cccc(Cl)c1Cl (configuration not stated),16,20
CCNc1nc(C)c(C(=O)N2CCC3(CCCN(C)CC3)CC2)s1,5,2
COc1ccc(NC(=O)c2cccnc2Nc2cc(Cl)ccc2C)cc1Cl,-6,-4
CC(C)(NC(=O)OCc1ccccc1)C(=O)N1CCOC(COCc2cccc(C(F)(F)F)c2)C1 (configuration not stated),26,31
Cc1cc(N(C)C2CCCCC2)nc(SCc2cccc(C(=O)NCc3ccc4c(c3)OCO4)c2)n1,15,13
CN(C)CC(=O)Nc1ccc(C(=O)Nc2cnc3n2CCCC3)cc1,1,1
O=C(O)c1ccccc1-c1c(-c2ccccc2)ncn1C1CCNC1 (configuration not stated),-1,-11
Cc1cc(=O)[nH]c(-n2nc(C)cc2NC(=O)c2ccc(C)c(C)c2)n1,10,4
C=c1onc(-c2ccccc2Cl)c1=c1[nH]/c(=C\c2ccc([N+](=O)[O-])cc2)c(=O)o1,0,-2
OC1c2ccccc2-c2c3c(cc4c2C1NCC4)OCO3 (configuration not stated),12,6
CC(C)CNc1nc(-c2cccnc2)nc2ccccc12,4,10
C/C(=N\NC(=O)CSc1nnc(-c2ccccc2)n1-c1ccccc1)c1cccc([N+](=O)[O-])c1,-7,-13
CN(C)c1cccc(CSc2nnnn2C2CC2)c1,9,7
CCOC(=O)N1CCN(C(c2ccc(F)c(F)c2)C2Sc3nc(CC)nn3C2=O)CC1 (configuration not stated),-4,-7
COc1c(Cl)cc(Cl)cc1CN1CCOCC(CN(C)C)C1 (configuration not stated),5,8
Cc1ccc(C(CC(=O)C(C)(C)C)C2C(=O)NC(=O)NC2=O)cc1 (configuration not stated),0,-1
CN(C)c1cccc(C(NC(=O)CCCNC(=O)OCc2ccccc2)c2ccc(S(C)(=O)=O)cc2)c1 (configuration not stated),-11,-14
CCOC(=O)c1sc2ncn(CC(=O)NC3(C#N)CCCC3)c(=O)c2c1C,3,-2
COc1cccc(CN(Cc2ccc(F)cc2)Cc2nc(C(=O)NCC3CCCO3)co2)c1 (configuration not stated),15,25
CC(C)(C)c1ccc(S(=O)(=O)N2CCN(CC(O)COc3ccccc3)CC2)cc1 (configuration not stated),5,1
O=C(NCc1nnnn1-c1ccc(Cl)cc1)C1c2ccccc2Oc2ccccc21,-2,-4
CCN(CC)C(=O)Cn1cc(C(=O)NCC2CCCN2CC)nn1 (configuration not stated),6,6
CCC(C)N(Cc1ccccc1F)C(=O)c1cn(C)c2ccccc2c1=O (configuration not stated),3,-1
O=c1[nH]cccc1-c1ccc2c(c1)OCO2,12,7
COc1cc(OC)c(NC(=O)NCCNc2cc(-n3nc(C)cc3C)ncn2)cc1Cl,-6,-12
Cc1nn2c(NCCN(C)C)cc(C(C)(C)C)nc2c1-c1ccccc1Cl,7,13
Cc1ccoc1C(=O)Nc1ccc(OC(F)F)cc1,-3,-6
Cn1c(C(=O)Nc2nncs2)cc2cc(C(F)(F)F)ccc21,5,2
O=C(c1cnn2cc(CCO)cnc12)N1C[C@@H]2[C@@H]3CC[C@@H](C3)[C@@H]2C1,-8,-8
COc1ccc(-c2cc(C(=O)Nc3ccc(C(C)C)cc3)c3ccccc3n2)c(OC)c1,2,-2
O=C1OC(c2ccc(Cl)c([N+](=O)[O-])c2)=N/C1=C\c1cc2cc3c4c(c2oc1=O)CCCN4CCC3,123*,168*
Cc1c(CCC(C)C)c(N2CCN(CCO)CC2)n2c(nc3ccccc32)c1C#N,5,4
CC1=NC2=C(C(=O)CCC2)C(c2coc3ccccc3c2=O)C1C(=O)OCCOc1ccccc1 (configuration not stated),-3,-11
O=C1CCC2(CCN1)CCN(C(=O)c1cc3ccccc3[nH]1)CC2,2,2
CCC(c1ccccn1)N(C)C(=O)c1onc2ccccc12 (configuration not stated),10,2
O=C(O)C#Cc1ccc2c(c1)OCO2,7,4
COc1ccccc1NC(=O)Cc1ccc(N2CCCC2=O)cc1,-7,-7
c1ccc(-c2noc(CSc3nnc(-c4ccccc4)o3)n2)cc1,0,-4
COc1cccc(C2CC2C(=O)NCC(c2ccsc2)N(C)C)c1 (configuration not stated),-6,-7
COc1cc2c(cc1OC)-c1cc3cc(OC)c(OC)cc3c(=O)n1CC2,6,4
CC1CCC(N(C(=O)NC2CC2)C2CC2)CC1 (configuration not stated),0,0
Cn1ncc2c(N3CCOCC3)nc(N3CCOCC3)nc21,2,0
COc1cccc(-c2cnc(-c3ccc(CNC(=O)CC(C)C)cc3)[nH]2)c1,-1,-1
CCc1cc(CN(C)Cc2ccc(NC(C)=O)cc2)on1,4,5
Cc1cnc(C)c(N2CCN(Cc3nc(-c4cc5c(cc4Cl)OCO5)oc3C)CC2)n1,5,9
CCCCc1nc(N2CCN(CCOc3ccccc3)CC2)c2c3c(sc2n1)CCCC3,3,7
COc1cccc(C(=O)N2CCC(=O)N(C)C[C@H]3COc4ccc(C)cc4[C@H]32)c1,-8,1
# Carrying on:
SMILES,NPYLR7 ag,NPYLR7 ag max-min
COc1ccc(OC)c(Nc2nc(-c3c(C)nc4sccn34)cs2)c1,-16,-23
Cn1nc(NC(=O)c2cccc(Cl)c2)c2c1NC(=O)CC2c1ccccc1 (configuration not stated),-15,-14
Cc1cc(C(=O)c2sc3ccccc3c2O)c(C)n1C,7,7
CCOC(=O)C1CCN(CC(=O)N2N=C(c3ccc(OC)cc3)CC2c2ccco2)CC1 (configuration not stated),-3,2
CC(C)NC(=O)NC12CC3CC(CC(C3)C1)C2,3,2

# Only part of the results is shown; count on the stated rates, not on these rows.
